Giardia kill: Giardia lamblia killing; Giardia lamblia trophozoite viability; activity change, % at 7.66 µM, hits read low; hit rate 0.15% among 340,000; AID 540267; in the data active = activity change below about -80%; inconclusive = between about -30% and that limit;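 also: parasites exposed to compound for two days anaerobically before the ATP read; % is scaled to controls: 0 for no effect and ±100 for the full control effect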
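Luminescence from cellular ATP indicates surviving trophozoites (100 cells/well) following 48 hrs anaerobic compound treatment at 37 deg C; signal develops 15-30 min at room temperature.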
p53 reactivation: restores transcriptional activity of mutant p53. H1299 p53-A138V BP100-luciferase reporter, luminescence, 24 h. Potency, µM (highest dose often 92.2 µM), inactives show top-dose activity change, positive = activation, actives largely listed as activators. hit rate 0.063% among 320,000. AID 504706; also: potency is read from the fitted curve at half-maximal effect; % of control where 0% means no effect; nearly all actives have a fitted effect of over 45% in size
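H1299 (p53-null), stable ts p53-A138V + BP100-Luc; 1000 cells/well, Opti-MEM/10% FBS; cpd 4 pt, 1:5; 24 h, 37 deg C, 5% CO2; detection reagent 10 min RT; luminescence.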
NPC1 promoter act: NPC1 promoter activation; hit rate 2.4% among 320,000; Huh7 NPC1 promoter luciferase reporter, 24 h; Potency, µM (highest dose often 9.22 µM), without a hit: top-dose activation, most hits filed as activators;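 also: potency is read from the fitted curve at half-maximal effect; % of control where 0% means no effect; nearly all actives have a fitted effect of over 60% in size; reporter is driven by a mutant NPC1 promoter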
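In 1536-well qHTS, Huh7 cells harboring an NPC1 promoter–luciferase construct received compound for 24 h; activation was quantified by luminescence following luciferase reagent addition.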
Menin-MLL TR inh: displaces Texas Red mutant MLL peptide from human menin. hit rate 0.23% among 270,000. Menin + Texas Red MLL mutant peptide, fluorescence polarization. Potency, µM (series often up to 61.6 µM), for inactives: top-dose FP activity change, negative = inhibition, actives largely listed as inhibitors. AID 1768; active = well fitted inhibition curve with a large enough effect in the polarisation, with a control signal flat, not every such curve was filed as active; inconclusive = small, poorly fitted or top-dose-only effect, or effect the other way, or a change in a side signal; inactive = no such curve, though single readings can be large or run the other way; the % refers to the polarisation; also: potency is read from the fitted curve at half-maximal effect; % of control where 0% means no effect; many of its hits are not listed in these tables
Target sequence (O00255 whole entry, looked up): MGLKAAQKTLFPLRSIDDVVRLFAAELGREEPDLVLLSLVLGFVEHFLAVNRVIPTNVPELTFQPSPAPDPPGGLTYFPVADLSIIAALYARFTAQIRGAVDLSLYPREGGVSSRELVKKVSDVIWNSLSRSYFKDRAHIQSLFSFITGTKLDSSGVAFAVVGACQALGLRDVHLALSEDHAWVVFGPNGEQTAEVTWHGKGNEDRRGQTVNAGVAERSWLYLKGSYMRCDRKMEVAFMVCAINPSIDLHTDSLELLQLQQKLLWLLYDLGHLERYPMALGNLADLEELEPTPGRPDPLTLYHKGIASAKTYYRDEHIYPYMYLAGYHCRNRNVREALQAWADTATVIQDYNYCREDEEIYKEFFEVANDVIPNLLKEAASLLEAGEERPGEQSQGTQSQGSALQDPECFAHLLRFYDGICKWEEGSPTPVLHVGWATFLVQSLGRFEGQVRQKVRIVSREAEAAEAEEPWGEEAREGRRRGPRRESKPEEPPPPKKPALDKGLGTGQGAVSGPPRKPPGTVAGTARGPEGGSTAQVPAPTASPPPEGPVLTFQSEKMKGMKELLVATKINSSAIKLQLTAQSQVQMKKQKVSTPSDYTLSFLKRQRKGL
FLuc modulator: counter-screen for miR-21 project: firefly luciferase inhibitors or activators; P08659; purified FLuc, Km substrates, luminescence inhibition; Potency, µM (top dose mostly 57.5 µM), for the others: at the highest dose activity change, negative = inhibition, usual class: inhibitors; hit rate 6.9% among 360,000; AID 588342;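 also: potency is read from the fitted curve at half-maximal effect; plate controls were vehicle for no effect and reference inhibitor for full effect; nearly all actives have a fitted effect of over 55% in size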
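Purified P. pyralis luciferase (10nM final) with 10uM D-luciferin and 10uM ATP (Km levels) in 50mM Tris acetate pH 7.5, 10mM Mg acetate, 0.01% Tween-20, 0.05% BSA; qHTS 6-point titration, ~60 µM downward; luminescence read.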
Gal4-VP16 FLuc: Gal4-VP16 reporter inhibition counter-screen. AID 2546. Drosophila S2 Gal4-VP16 UAS-luciferase, luminescence, 20 h. Potency, µM (top dose mostly 53.6 µM), without a hit: at the top dose activity, negative = inhibition, most hits filed as inhibitors. hit rate 3.5% among 310,000;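 also: Gal4-VP16 expression switched on by copper sulfate through the metallothionein promoter; potency is read from the fitted curve at half-maximal effect; % is scaled to controls: 0 for no effect and ±100 for the full control effect; nearly all actives have a fitted effect of over 50% in size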
RORg inh: inhibitors of mouse ROR gamma transcriptional activity | P51450 | hit rate 5.4% among 310,000 | AID 2551 | Drosophila S2 Gal4-RORgamma UAS-luciferase reporter, 20 h | Potency, µM (series often up to 53.6 µM), inactives show at the highest dose activity change, negative = inhibition, most hits filed as inhibitors; also: potency is read from the fitted curve at half-maximal effect; % is scaled to controls: 0 for no effect and ±100 for the full control effect; nearly all actives have a fitted effect of over 60% in size
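Luciferase reporter read in Schneider cells carrying Gal4-RORγ (mouse) and UAS-Photinus luciferase; cells given compound 1 h before 700 uM copper sulfate induction, then incubated 20 h at ambient temperature.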
BRCA1 expr up: increases BRCA1 expression; MCF7-BRCA1-FFLuc reporter, luminescence, 48 h; response scale: scaled: vehicle 0%, 10 µM genistein 100%; Potency, µM (series often up to 46.1 µM), for inactives: top-dose activation, usual class: activators; hit rate 1.1% among 380,000; AID 624202; also: potency is read from the fitted curve at half-maximal effect; nearly all actives have a fitted effect of over 80% in size; some results filed as inactive show a strong effect at the top dose
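MCF7-BRCA1-FFLuc, 2000 cells/well; 2 h attach, 37 °C/5% CO2; compound 48 h; luciferase substrate 15 min; luminescence end-point. Norm. to genistein 10 microM max activation and DMSO; concentration-response curves fitted.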
ELG1 genotox: genotoxicity induction in ELG1-luciferase HEK293T cells | HEK293T ELG1-luciferase reporter, luminescence, 16 h | Potency, µM (highest dose often 46 µM), for the others: at the top dose activity change, positive = activation, hits mostly activators | hit rate 1.3% among 330,000 | AID 504466; also: potency is read from the fitted curve at half-maximal effect; % of control where 0% means no effect; nearly all actives have a fitted effect of over 60% in size
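Quantitative HTS format in 1536-well plates. HEK293T ELG1-luciferase reporter cells receive test compound and are incubated 16 hr at 37 °C, 5% CO2; ONE-Glo added, 30 min room temperature, then luminescence read.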
Rab9 prom act: activators of Rab9 promoter | Huh7 Rab9 promoter-luciferase reporter, luminescence, 24 h | Potency, µM (titrated, usually from 9.22 µM), for inactives: at the top dose activation, negative = inhibition, most hits filed as activators | hit rate 2.8% among 320,000; also: potency is read from the fitted curve at half-maximal effect; % of control where 0% means no effect; nearly all actives have a fitted effect of over 60% in size
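Quantitative HTS format; Huh7 Rab9-luciferase reporter cells (1500/well) receive compound 2 h post-plating, incubate 24 h at 37 °C, then get luciferase reagent for 10 min before luminescence reading.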
An asterisk follows results filed as active; ? = inconclusive; . = not tested or not shown; & = joins results of further samples; [ ] = remark or other dose. Unless noted, calls follow the shape of the dose curve; as a rule, active = well fitted curve in the direction sought with a large enough effect; inconclusive = small, poorly fitted or top-dose-only effect, or another doubt; inactive = no such curve, though single readings can be large; an effect the other way counts as inactive or inconclusive.

SMILES	Giardia kill	p53 reactivation	NPC1 promoter act	Menin-MLL TR inh	FLuc modulator	Gal4-VP16 FLuc	RORg inh	BRCA1 expr up	ELG1 genotox	Rab9 prom act
CSc1ccccc1C(=O)NCCOc1ccccc1C	5	-5%	-1%	-12%	4%	5%	?	-11%	-3%	-2%
O=C(NCCCn1ccnc1)/C(=C/c1ccco1)NC(=O)c1ccco1	-13	0%	-1%	.	-2%	-2%	3%	-10%	0%	-10%
Cc1ccc(CN(CC(=O)NCc2ccc3c(c2)OCO3)C(=O)c2csnn2)cc1	11	-8%	-1%	1%	-1%	2%	20%	-14%	?	1%
Cc1cc(C(F)(F)F)nc(SCCN2CCCCC2)c1C#N	5	.	-4%	-2%	6%	0%	-10%	-22%	-2%	1%
COC(=O)c1ccc(NC(=O)c2ccccc2SC)cc1	-14	4%	26%	22%	?	14%	?	60%	11%	?
COC(=O)c1ccc(-c2nc(CN3CCC(C(=O)N4CCOCC4)CC3)c(C)o2)cc1	-20	2%	-4%	.	-1%	3%	20%	2%	1%	1%
CSCCC(NC(=O)c1ccccc1Br)C(=O)NCC1CCCCC1 (stereo not drawn)	3	0%	-1%	-29%	3%	-4%	2%	-1%	-1%	0%
CCc1ccc(NC(=O)C(C)OC(=O)c2ccc(NS(=O)(=O)c3ccc(C)c([N+](=O)[O-])c3)cc2)cc1 (stereo not drawn)	-3	21%	0%	?	?	-4%	?	-79%	-12%	0%
CCOC(=O)c1sc(NC(=O)CSc2nnc(C(C)C)n2C)nc1C	4	17%	-5%	-7%	?	-2%	?	-11%	4%	-2%
CC(=O)c1cccc(NC(=O)CSc2nnc(-c3ccc(S(=O)(=O)N4CCCC4)cc3)o2)c1	0	-3%	0%	-2%	1%	0%	-31%	-48%	0%	-1%
O=C(NCc1ccccc1)C(c1ccccc1)N(Cc1cccs1)C(=O)c1cnccn1 (stereo not drawn)	-16	4%	-1%	-12%	-2%	-3%	34%	-29%	-7%	3%
O=C(c1ccco1)c1nc2c(n1O)CCCCC2	11	-2%	1%	-10%	-1%	11%	-38%	1%	7%	0%
O=C(COC(=O)c1ccccc1O)Nc1ccc(S(=O)(=O)N2CCCCC2)cc1	-6	-3%	-1%	?	3%	-2%	34%	-6%	0%	-1%
COc1cccc2c(=O)cc(C)n(CC(=O)Nc3ccc(C)c(C)c3)c12	1	24%	-3%	0%	-12%	?	-20%	-45%	0%	-19%
Cn1c(=O)c(=O)n(C)c2cc(S(=O)(=O)N3CCN(c4ccc(F)cc4)CC3)ccc21	-2	-2%	-3%	-9%	-5%&0%	0%	23%	4%&-6%	0%	-4%
Cc1cc(C)c(S(=O)(=O)n2cnc3ccccc32)c(C)c1	-12	1%	-2%	-8%	-3%	-3%	7%	7%	0%	-2%
CCOC(=O)C1C(=O)Nc2nc3ccccc3n2C1C(C)C (stereo not drawn)	-21	-2%	2%	2%	12%	-5%	-9%	-1%	2%	5%
CCOC(=O)C1=C(O)/C(=C/c2ccc(OCC(=O)O)c(OCC)c2)SC1=Nc1ccccc1	-12	4%	-4%	?	-5%	-12%	30%	-13%	9%	-1%
Cc1ccc(/C(C#N)=C\c2cn(C)c3ccccc23)cc1	.	?	16%	27%	?	.	?	.	?	3%
C=C(C)CCC1(C)NC(=O)N(c2ccccc2)N1 (stereo not drawn)	3	0%	0%	.	-2%	0%	2%	-2%	15%	10%
C/C(=N\NC(=O)CNc1ccc(F)cc1)c1cc2ccccc2o1	-15	-5%	1%	-16%	?	2%	-34%	-23%	-6%	3%
COc1ccc(CC(=O)NNS(=O)(=O)c2ccc(F)cc2)cc1OC	18	-4%	-1%	-10%	6%	-6%	?	-16%	-3%	-5%
C/C=C/C(=O)OCC(=O)Nc1c(Cl)cccc1Cl	2	0%	1%	2%	2%	15%	-3%	0%[1.84 µM]	-1%	0%
Cc1ccccc1CS(=O)(=O)c1cn(CC(=O)N2CCC(C)CC2)c2ccccc12	3	7%	0%	5%	1%	-13%	12%	10%	-3%	-6%
CC(C)c1nnc(NC(=O)C2CCCN2S(=O)(=O)c2ccc(Cl)cc2)s1 (stereo not drawn)	2	5%	-2%	-2%	-1%	-11%	-18%	-14%	-3%	-1%
Cc1ccc(/C=N/NC(=O)c2ccccc2OCc2ccc(F)cc2)o1	26	3%	0%	-12%	?	3%	2%	-15%	2%	-4%
Cc1nn(C)cc1/C=N/NC(=O)c1ccco1	-6	14%	25%	.	17µM*	0%	-16%	68%	13%	?
CC(=O)c1ccc(NC(=S)N(C)C2CCN(C)CC2)cc1	-14	-5%	-3%	-2%	3%	0%	-19%	19%	2%	3%
Cc1nn(CC(=O)Nc2nc3ccccc3s2)c(C)c1[N+](=O)[O-]	-2	10%	0%	18%	-1%	2%	6%	6%	-1%	-6%
COc1cc(C(=O)NCCOc2cccc3cccnc23)cc(OC)c1OC	-1	-1%	-22%	-10%	1%	-14%[10 µM]	-14%	-5%	-11%	-22%
CCCc1nnc(NC(=O)CCC(=O)O)s1	-23	-3%	5%	1%	-1%	0%	4%	-5%	0%	5%
Cc1ccc(-n2cnc3scc(-c4cccs4)c3c2=O)cc1	8	-10%	-3%	-4%	1%	-7%	?	-42%	-2%	-6%
O=P(O)(COc1ccccc1)COc1ccccc1	-12	-2%	-3%	14%	2%	-10%	-15%	-15%	0%	0%
Cc1c(OCC(=O)N2CCC[C@@H]2C(=O)O)ccc2c3c(c(=O)oc12)CCC3	-10	13%	0%	-16%	-7%	3%	3%	6%	-4%	3%
Cc1nc(NCc2ccccc2)c2nc(-c3ccccc3)n(CC3CCN(C)CC3)c2n1	.	.	.	6%	.	-8%	-4%	.	.	.
CC(C)Cn1c(NCCN(C)C)nc2c1c(=O)[nH]c(=O)n2C	-8	3%	2%	6%	1%	1%	-1%	8%	0%	16%
CCC(c1nnc(SCC(=O)Nc2nnc(-c3ccccc3)o2)o1)N(C)C (stereo not drawn)	-6	46%	8%	-1%	-23%	?	13µM*	0%	-1%	4%
CCCCn1c(SCC(=O)NCc2ccco2)nc2c(sc3ccccc32)c1=O	1	0%	4%	2%	-3%	-11%	20%	-15%	2%	-3%
COc1ccc(-c2nc(SCC(=O)Nc3nccs3)c(-c3ccc(Cl)cc3)[nH]2)cc1	-7	-10%	-1%	?	?	-3%	?	-54%	-11%	-9%
CCOC(=O)N1CCN(C(=O)COC(=O)c2oc3ccc(OC)cc3c2C)CC1	0	16%	-5%	-5%	?	16%	40%	-8%	5%	10%
COc1ccccc1CNC(=O)CN(C)Cc1ccc(SC)cc1	2	-4%	0%	-20%	0%	3%	1%	4%	0%	12%
Cc1ccccc1OCC(=O)NNC(=S)NC(=O)c1ccco1	1	11%	-1%	27%	-20%	?	13µM*	-31%	0%	16%
NC(=O)CSc1nc(C23CC4CC(CC(C4)C2)C3)nc2ccccc12	-4	-12%	2%	7%	-1%	?	-2%	-50%	?	-15%
CN(Cc1ccccc1OCCO)CC1CCCN(CCc2ccc(Cl)cc2)C1 (stereo not drawn)	46[activator]	-6%	11%	-30%	-1%	-1%	-39%	-55%	-11%	3%
Cc1cc(NC(=O)CO/N=C/c2ccc3c(c2)OCO3)ccc1Br	2	9%	0%	-5%	3%	5%	18%	0%	?	-3%
COc1ccc(NC(=O)C2CCCN2S(=O)(=O)c2ccc3c(c2)CCC(=O)N3)cc1 (stereo not drawn)	-3	-3%	-1%	0%	3%	0%	-13%	5%	0%	4%
O=C(COC(=O)c1ccccc1NC(=O)c1ccco1)NC1CC1	-6	1%	4%	8%	4%	10%	0%	-1%	2%	6%
CCCCOc1ccc(C(=O)NCCC(=O)NCCCC(=O)OCC)cc1	10	-1%	0%	.	-9%	-3%	10%	-6%	1%	-2%
Cc1cc2occ(CC(=O)NNC(=O)c3ccccc3F)c2cc1C	-6	14%	-6%	.	0%	0%	19%	13%	0%	23%
O=C(NCCc1nc2ccccc2[nH]1)/C(=C/c1ccco1)NC(=O)c1ccc(Br)cc1	-19	1%	-2%	8%	-1%	11%	12%	-20%	-4%	-2%
COC(=O)c1onc(-c2ccccc2)c1C(=O)OC	1	0%	15%	-5%	2%	20%	-2%	6%	2%	19%
O=C1CC(c2ccco2)CC(O)=C1C=NCCO (stereo not drawn)	20	1%	2%	1%	-1%	1%	-1%	-28%	3%	9%
Cc1ccc(S(=O)(=O)N2CCN(C(=O)COC(=O)c3cc(C)oc3C)CC2)cc1	-12	-5%	-1%	-6%	2%	-3%	19%	3%	-1%	3%
CCCCN=C(C)C1=C(O)CSC1=O	7	0%	-2%	-6%	2%	16%	29%	6%	7%	3%
COc1ccc(/C=N/NC(=O)Cn2nc([N+](=O)[O-])cc2C)c(OC)c1OC	2	4%	0%	.	-1%	0%	6%	-4%	2%	3%
COc1ccc(N(C(=O)c2ccc(C)cc2)S(=O)(=O)c2cccs2)cc1	1	-3%	-2%	3%	4%	-13%	38%	-28%	-3%	3%

A portion of the library (hit frequency here may not be typical).
